HSV augment – increases HSV replication in cells. HSV replication augmentation in cells, fold increase. maximum fold increase. 220,000 compounds, 0.005% hits. AID 1956;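 active = peak rise of 1.5-fold or more in the series; tested in PC3 cells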;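 note: first round at 10 µM; read as green reporter fluorescence; hits show the peak of a series up to 25 µM; 1 = signal of infected wells without compound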
PKD1 kinase inh – PKD1 (human) kinase inhibition; Q15139; PKD1 kinase fluorescence polarization assay; inhibition, %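 (about 10 µM by stock and volumes)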; 200,000 compounds, 0.056% hits; AID 797;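 active = inhibition of 50% or more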;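 note: controls were vehicle for no effect and a reference inhibitor for full effect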
Insulin prom inh – TRM-6 insulin promoter activity inhibition | AID 1273 | TRM-6 cells (human fetal islet line), insulin promoter-eGFP reporter, imaging; reporter expression induced with tamoxifen | 130,000 compounds, 0.9% hits | inhibition, % at 2 µM;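 active = inhibition above the mean plus 3 SD, with well images judged a real hit on visual review, cut at about 60% in these data, passing the limit was not always enough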
RGS16-Gao – regulators of human RGS16-Galphao interaction | binding response (% of control), % at 10 µM | O15492+P09471 | bead-based flow cytometry RGS16-Galphao binding, fluorescence; actives lie on both sides | 220,000 compounds, 0.38% hits;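 active = below 25% or above 175%, edge rows of some plates excepted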;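 note: Galphao activated by GDP with aluminum fluoride before binding; 100% = wells without compound and 0% = beads without RGS; some results beyond the cut were filed as inactive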
Target sequence (O15492 whole entry, looked up): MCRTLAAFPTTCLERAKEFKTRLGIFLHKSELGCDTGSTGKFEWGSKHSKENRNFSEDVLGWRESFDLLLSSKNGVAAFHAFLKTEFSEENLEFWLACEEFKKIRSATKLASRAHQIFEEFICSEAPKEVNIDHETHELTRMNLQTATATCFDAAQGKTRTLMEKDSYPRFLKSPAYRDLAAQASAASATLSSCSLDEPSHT
Target sequence (P09471 whole entry, looked up): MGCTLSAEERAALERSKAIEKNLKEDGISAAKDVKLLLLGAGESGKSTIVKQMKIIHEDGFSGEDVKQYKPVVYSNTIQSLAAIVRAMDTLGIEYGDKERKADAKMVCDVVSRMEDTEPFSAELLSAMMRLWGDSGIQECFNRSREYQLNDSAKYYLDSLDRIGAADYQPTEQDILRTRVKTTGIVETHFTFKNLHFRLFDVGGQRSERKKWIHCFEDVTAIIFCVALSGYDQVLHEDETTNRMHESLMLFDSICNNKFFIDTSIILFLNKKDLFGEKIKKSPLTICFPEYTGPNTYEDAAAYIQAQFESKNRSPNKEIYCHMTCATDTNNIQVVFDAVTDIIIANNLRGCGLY
GALR2 ag – activates the human galanin receptor 2. O43603. GALR2-expressing cells, agonist activation read-out. activation, %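 (tested at 5 µM)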. 140,000 compounds, 0.48% hits. AID 803;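 active = above mean plus 3 SD of all compounds, about 5% in these data, not always enough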;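 note: 0% = vehicle buffer wells and 100% = reference agonist at full effect; tested in CHO reporter cells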
Target sequence (O43603 whole entry, looked up): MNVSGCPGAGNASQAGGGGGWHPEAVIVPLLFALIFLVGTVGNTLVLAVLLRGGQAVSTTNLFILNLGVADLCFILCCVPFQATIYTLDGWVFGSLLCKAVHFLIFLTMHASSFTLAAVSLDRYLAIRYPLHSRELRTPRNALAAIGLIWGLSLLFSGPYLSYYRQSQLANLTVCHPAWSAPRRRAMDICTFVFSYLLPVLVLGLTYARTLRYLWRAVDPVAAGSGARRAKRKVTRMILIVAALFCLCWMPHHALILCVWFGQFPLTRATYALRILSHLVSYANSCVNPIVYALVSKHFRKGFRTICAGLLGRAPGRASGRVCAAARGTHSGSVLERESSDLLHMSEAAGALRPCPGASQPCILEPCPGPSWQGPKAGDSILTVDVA
Insulin prom inh cell count – also measured in Insulin prom inh; calls as there; normalized cell count, %; measured here: cell count, toxicity; reference of the scale not given here;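 cells exposed to compound for 48 h; stained nuclei by imaging scaled within each plate; lower means fewer cells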
HSV augment primary fold – also measured in HSV augment; calls as there; fold increase; compound at 10 µM; measured here: primary screen fold increase 10 uM; tested in PC3 cells;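 GFP signal in the first replicate; 1 = infected wells without compound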
Numbers without * were called inactive.

Screening CCNc1nc(OCCNC(C)=O)nc(N(C)C)n1 returned HSV augment inactive, PKD1 kinase inh -0.7, Insulin prom inh -8.1, RGS16-Gao 99.9, GALR2 ag -0.8, Insulin prom inh cell count 69.2 and HSV augment primary fold 0.79.
Screening COC(=O)c1[nH]c2cc(OC)ccc2c1NC(=O)CCN1CCN(Cc2ccc3c(c2)OCO3)CC1 returned HSV augment inactive, PKD1 kinase inh -3.9, Insulin prom inh -90.9, RGS16-Gao 101.7, GALR2 ag -0.5, Insulin prom inh cell count 89.9 and HSV augment primary fold 0.99.
CC1NC(=O)N(C)C2NC(=O)N(C)C(c3ccccc3)C12 (configuration not stated) was read as HSV augment inactive, PKD1 kinase inh -7.9, RGS16-Gao 104.7, GALR2 ag -2.2 and HSV augment primary fold 0.88.
For Cc1cccc(NC(=O)c2ccc(NS(=O)(=O)c3c(C)noc3C)cc2)c1 the results were HSV augment inactive, PKD1 kinase inh -1.9, RGS16-Gao 102.2, GALR2 ag -1.3 and HSV augment primary fold 0.903.
Screening O=[N+]([O-])c1ccc(N/N=C/c2ccc[nH]2)cc1 returned HSV augment inactive, PKD1 kinase inh -0.2, Insulin prom inh -244.8, RGS16-Gao 99.4, GALR2 ag -1.0, Insulin prom inh cell count 43.9 and HSV augment primary fold 1.13.
Screening CC(=O)c1ccc(N2C(=O)NC3(CCCCC3)C2=O)cc1 returned HSV augment inactive, PKD1 kinase inh 1.2, Insulin prom inh -53.6, RGS16-Gao 105.6, GALR2 ag -1.5, Insulin prom inh cell count 116.6 and HSV augment primary fold 0.86.
`Nc1nnc(COc2cccc(C(F)(F)F)c2)s1` gave HSV augment inactive, PKD1 kinase inh -7.5, Insulin prom inh -3.0, RGS16-Gao 82.4, GALR2 ag -1.1, Insulin prom inh cell count 85.9 and HSV augment primary fold 0.86.
For Cc1nc(-c2ccccc2)sc1C(=O)/C=C/N(C)C the results were HSV augment inactive, PKD1 kinase inh -0.7, RGS16-Gao 95.0 and HSV augment primary fold 0.94.
Screening Cc1nc(OCc2ccccc2)c2ccccc2n1 returned HSV augment inactive, PKD1 kinase inh -5.2, Insulin prom inh 18.9, RGS16-Gao 112.5, GALR2 ag -4.7, Insulin prom inh cell count 67.6 and HSV augment primary fold 0.82.
For Nc1ccc2c(c1)N=[N+]([O-])c1cc(N)ccc1C2 the results were HSV augment inactive, RGS16-Gao 105.2 and HSV augment primary fold 0.95.

Molecules above with a carbonyl joined to an NH by a bond outside any ring:
Screening CCNc1nc(OCCNC(C)=O)nc(N(C)C)n1 returned HSV augment inactive, PKD1 kinase inh -0.7, Insulin prom inh -8.1, RGS16-Gao 99.9, GALR2 ag -0.8, Insulin prom inh cell count 69.2 and HSV augment primary fold 0.79.
Screening COC(=O)c1[nH]c2cc(OC)ccc2c1NC(=O)CCN1CCN(Cc2ccc3c(c2)OCO3)CC1 returned HSV augment inactive, PKD1 kinase inh -3.9, Insulin prom inh -90.9, RGS16-Gao 101.7, GALR2 ag -0.5, Insulin prom inh cell count 89.9 and HSV augment primary fold 0.99.
For Cc1cccc(NC(=O)c2ccc(NS(=O)(=O)c3c(C)noc3C)cc2)c1 the results were HSV augment inactive, PKD1 kinase inh -1.9, RGS16-Gao 102.2, GALR2 ag -1.3 and HSV augment primary fold 0.903.

Remaining list, next part
O=C1c2ccc([N+](=O)[O-])cc2C(=O)N1c1c[nH]c(=O)[nH]c1=O was read as HSV augment inactive, PKD1 kinase inh -4.7, RGS16-Gao 111.2 and HSV augment primary fold 1.
For CC(C(=O)Nc1sccc1C(N)=O)N1C(=O)C2CC=CCC2C1=O (configuration not stated) the results were HSV augment inactive, PKD1 kinase inh -6.8, RGS16-Gao 105.5, GALR2 ag -2.1 and HSV augment primary fold 1.07.
C/C(=N\NC(=O)C1CC1)c1ccc2c(c1)OCCO2 was read as HSV augment inactive, PKD1 kinase inh 2.8, Insulin prom inh 3.7, RGS16-Gao 101.1, Insulin prom inh cell count 91.8 and HSV augment primary fold 0.95.
For CC(C)CN1CCN(Cc2nc3ccccc3s2)CC1CCO (configuration not stated) the results were HSV augment inactive, PKD1 kinase inh -4.6, RGS16-Gao 100.4 and HSV augment primary fold 0.95.
`COc1ccc(Nc2nc3ccccc3nc2-n2nc(C)cc2C)cc1` gave HSV augment inactive, PKD1 kinase inh -0.2, RGS16-Gao 99.7, GALR2 ag 1.6 and HSV augment primary fold 0.93.
CCOc1ccc(C(C#N)N2CCOCC2)cc1OC (configuration not stated) was read as HSV augment inactive, PKD1 kinase inh -3.5, RGS16-Gao 103.9, GALR2 ag -2.6 and HSV augment primary fold 0.94.
For COC(=O)CCC(=O)c1oc2ccc(Cl)cc2c1NC(=O)CCCN1C(=O)c2ccccc2C1=O the results were PKD1 kinase inh 6.8, Insulin prom inh 12.1, RGS16-Gao 102.4, GALR2 ag -1.8 and Insulin prom inh cell count 79.0.
For COc1ccc(OC)c(S(=O)(=O)Nc2ccc3oc4c(c3c2)C(=O)CCC4)c1 the results were HSV augment inactive, PKD1 kinase inh 1.9, Insulin prom inh 15.0, RGS16-Gao 87.1, GALR2 ag -2.4, Insulin prom inh cell count 122.1 and HSV augment primary fold 1.08.
For COc1ccc(C(C)=O)cc1CSc1ncccn1 the results were HSV augment inactive, PKD1 kinase inh -7.2, RGS16-Gao 103.2 and HSV augment primary fold 1.03.
Screening Cc1nnc(NC(=O)c2ccc(C)c(S(=O)(=O)N3CCCCCC3)c2)s1 returned HSV augment inactive, PKD1 kinase inh 6.8, Insulin prom inh -1.8, RGS16-Gao 104.8, GALR2 ag 0.8, Insulin prom inh cell count 88.0 and HSV augment primary fold 1.06.
Screening CCOC(=O)CNC(=O)CSc1ncnc2c1cnn2-c1ccc(Cl)cc1 returned HSV augment inactive, PKD1 kinase inh -12.3, Insulin prom inh -50.0, RGS16-Gao 66.2, GALR2 ag -1.3, Insulin prom inh cell count 122.0 and HSV augment primary fold 0.71.
For CCCn1c(CCC(=O)O)nc2cc(S(=O)(=O)N(CC)CC)ccc21 the results were HSV augment inactive, RGS16-Gao 102.3 and HSV augment primary fold 0.97.
`COCCN(C(=O)/C=C/c1ccccc1)c1nnc(-c2cccnc2)s1` gave HSV augment inactive, PKD1 kinase inh 3.0, Insulin prom inh 4.8, RGS16-Gao 105.3, Insulin prom inh cell count 194.6 and HSV augment primary fold 0.73.
Screening Cn1nc(-c2ccc(Cl)cc2)c2cc(C(=O)N3CCCC3)sc21 returned HSV augment inactive, PKD1 kinase inh -2.0, RGS16-Gao 103.3, GALR2 ag -0.9 and HSV augment primary fold 0.82.
O=C(COc1ccc([N+](=O)[O-])cc1)Nc1ccc(C(=O)Nc2ccccc2C(=O)O)cc1 was read as HSV augment inactive, PKD1 kinase inh -8.9, RGS16-Gao 158.6 and HSV augment primary fold 0.99.
Screening Cc1ccc2nc(-c3ccc(NC(=O)CSc4ccccc4)cc3)[nH]c2c1 returned HSV augment inactive, PKD1 kinase inh -12.9, Insulin prom inh 41.7, RGS16-Gao 106.5, GALR2 ag -0.4, Insulin prom inh cell count 136.4 and HSV augment primary fold 0.72.
`Cn1c(SCC(N)=O)nnc1-c1cnccn1` gave HSV augment inactive, PKD1 kinase inh -1.8, Insulin prom inh 66.7, RGS16-Gao 111.3, Insulin prom inh cell count 118.3 and HSV augment primary fold 1.09.
For CCOCCCNC(=S)N1CCC(NC(=O)c2ccco2)CC1 the results were HSV augment inactive, PKD1 kinase inh -4.9, Insulin prom inh -28.2, RGS16-Gao 105.1, Insulin prom inh cell count 98.3 and HSV augment primary fold 0.98.
For Cc1ccc(N=Cc2nc(-c3ccco3)oc2O)cc1 the results were HSV augment inactive, PKD1 kinase inh 5.8, RGS16-Gao 94.8, GALR2 ag 0.1 and HSV augment primary fold 0.85.
For CCOC(=O)Cn1c(=NC(=O)CSC(C)=O)sc2cc(F)ccc21 the results were HSV augment inactive, PKD1 kinase inh -6.2, RGS16-Gao 103.5, GALR2 ag -0.4 and HSV augment primary fold 0.96.
COc1ccc(Cc2nnc(SC)[nH]c2=O)cc1OC was read as HSV augment inactive, PKD1 kinase inh 2.3, Insulin prom inh 41.9, RGS16-Gao -45.7, GALR2 ag -3.1, Insulin prom inh cell count 62.9 and HSV augment primary fold 0.91.
For CCOc1ccc(/C=N/Nc2cc(=O)n(C)c(=O)n2C)cc1 the results were HSV augment inactive, PKD1 kinase inh -8.7, Insulin prom inh 48.1, RGS16-Gao 135.0, GALR2 ag -0.8, Insulin prom inh cell count 113.1 and HSV augment primary fold 0.99.
For CCNc1nc(NCC)nc(ON=C(C)C)n1 the results were PKD1 kinase inh -3.4, RGS16-Gao 99.0 and GALR2 ag -0.1.
CC1Cc2ccccc2N1C(=O)Cn1nnc(-c2ccccc2NC(=O)C2CCC2)n1 (configuration not stated) was read as HSV augment inactive, PKD1 kinase inh -4.2, Insulin prom inh -15.4, RGS16-Gao 98.4, GALR2 ag -2.8, Insulin prom inh cell count 124.7 and HSV augment primary fold 0.99.
`Cc1ccc(N=C2NC(=O)CS2)c(C)c1` gave HSV augment inactive, PKD1 kinase inh 1.0, Insulin prom inh 28.9, RGS16-Gao 100.5, GALR2 ag -0.1, Insulin prom inh cell count 148.9 and HSV augment primary fold 0.88.
Cc1cc(C)c(NC(=O)C2CCCCN2C)c(C)c1 (configuration not stated) was read as HSV augment inactive, PKD1 kinase inh -4.8, Insulin prom inh -19.4, RGS16-Gao 107.4, GALR2 ag -1.1, Insulin prom inh cell count 106.0 and HSV augment primary fold 0.95.
CCOC(=O)C(NC(=O)Nc1ccc(F)cc1F)(Oc1ccc(F)cc1)C(F)(F)F (configuration not stated) was read as HSV augment inactive, PKD1 kinase inh -0.3, Insulin prom inh -71.0, RGS16-Gao 88.4, GALR2 ag -0.4, Insulin prom inh cell count 83.5 and HSV augment primary fold 1.06.
Cn1c(=O)c2c(nc(N/N=C/c3ccc(OC(=O)c4ccco4)cc3)n2Cc2ccccc2)n(C)c1=O was read as HSV augment inactive, PKD1 kinase inh 7.9, Insulin prom inh 11.1, RGS16-Gao 101.4, GALR2 ag -0.4, Insulin prom inh cell count 91.1 and HSV augment primary fold 0.81.
`C=CCn1c(CNC(=O)CCC)nc2ccccc21` gave HSV augment inactive, PKD1 kinase inh -1.3, Insulin prom inh 35.7, GALR2 ag -0.8, Insulin prom inh cell count 118.3 and HSV augment primary fold 1.06.
For CC1=NN(C(C#N)c2ccccc2C)C(C)(C)C1 (configuration not stated) the results were HSV augment inactive, PKD1 kinase inh -2.9, RGS16-Gao 101.3 and HSV augment primary fold 1.02.
For CNS(=O)(=O)c1cccc(C(=O)NCC(c2cccs2)N(C)C)c1 (configuration not stated) the results were HSV augment inactive, PKD1 kinase inh -9.2, Insulin prom inh 73.3*, RGS16-Gao 102.1, GALR2 ag -2.9, Insulin prom inh cell count 98.4* and HSV augment primary fold 0.79.
`O=C(Cc1ccccc1)NCCN1CCCC1` gave HSV augment inactive, RGS16-Gao 106.2 and HSV augment primary fold 0.92.
`CCOC(=O)Nc1ccc2c(C)cc(=O)oc2c1` gave HSV augment inactive, PKD1 kinase inh -2.6, Insulin prom inh -81.2, RGS16-Gao 100.5, GALR2 ag -1.3, Insulin prom inh cell count 96.8 and HSV augment primary fold 1.09.
Screening COc1ccc(C(=O)N2CCN=C2SCc2cccnc2)cc1OC returned HSV augment inactive, PKD1 kinase inh -1.0, RGS16-Gao 120.6, GALR2 ag -1.2 and HSV augment primary fold 0.85.
`CCCCn1nnnc1NCc1ccc(OC)c(OC)c1OC` gave HSV augment inactive, PKD1 kinase inh 0.1, RGS16-Gao 97.8, GALR2 ag -0.4 and HSV augment primary fold 0.83.
COc1ccc(/C=C/C(O)=C2/C(=O)NC3(C)CC2c2ccccc2O3)c(OC)c1OC (configuration not stated) was read as HSV augment inactive, PKD1 kinase inh -2.8, Insulin prom inh 46.7, RGS16-Gao 106.3, Insulin prom inh cell count 150.7 and HSV augment primary fold 0.69.
O=C(CSc1nnc(-c2cccnc2)n1Cc1ccco1)c1ccc2ccccc2c1 was read as HSV augment inactive, PKD1 kinase inh -5.0, RGS16-Gao 97.5, GALR2 ag -1.8 and HSV augment primary fold 0.85.
CCn1nc(C)cc1-c1nnc(SCC(=O)Nc2ccccc2)n1CCCOC was read as HSV augment inactive, RGS16-Gao 99.5 and HSV augment primary fold 0.82.
Screening COc1ccc(-c2nnc(-c3ccc(N)cc3)o2)cc1 returned HSV augment inactive, PKD1 kinase inh -7.6, Insulin prom inh 31.2, RGS16-Gao 97.2, GALR2 ag -1.0, Insulin prom inh cell count 107.5 and HSV augment primary fold 1.21.
O=C(O)c1ccc2c(c1)ncn2C1CCCC1 was read as HSV augment inactive, PKD1 kinase inh -0.5, Insulin prom inh 51.4, RGS16-Gao 102.9, Insulin prom inh cell count 83.0 and HSV augment primary fold 0.99.

Screens from PubChem.
